# Vaccinia mCherry: qHTS for Stage-Specific Inhibitors of Vaccinia Orthopoxvirus: mCherry Reporter Primary qHTS | Vaccinia virus mCherry reporter infection, fluorescence; about a quarter of the inactives have no number | Potency, µM (top dose mostly 36.5 µM), without a hit: at the highest dose activity change, negative = inhibition, actives largely listed as inhibitors | 310,000 compounds, 0.63% hits | AID 720579, 2013; active = well fitted inhibition curve with a large enough effect; inconclusive = small, poorly fitted or top-dose-only effect; inactive = no such curve, though single readings can be large or run the other way; tested in A549 cells; also: nearly all actives have a fitted effect of over 35% in size; inactives centre near -10
# Vaccinia Venus: qHTS for Stage-Specific Inhibitors of Vaccinia Orthopoxvirus: Venus Reporter Primary qHTS | 330,000 compounds, 0.46% hits | AID 720580, 2013 | Potency, µM (top dose mostly 36.5 µM), without a hit: at the highest dose activity change, negative = inhibition, most hits filed as inhibitors | Vaccinia virus Venus reporter expression, fluorescence; active means well fitted inhibition curve with a large enough effect; inconclusive means small, poorly fitted or top-dose-only effect; inactive means no such curve, though single readings can be large or run the other way; tested in A549 cells; also: nearly all actives have a fitted effect of over 30% in size; inactives centre near -10
# * marks the source's active call; other numbers are inactive results; i = inactive; u = inconclusive; x = not tested or not shown; [ ] = another dose, or the depositor's remark. % is scaled to controls: 0 for no effect and ±100 for the full control effect; potency is read from the fitted curve at half-maximal effect.
SMILES,Vaccinia mCherry,Vaccinia Venus
CC(O)(c1cccc(F)c1)c1nc(-c2ccc3c(c2)OCO3)cs1 (configuration not stated),7%,-28%
COc1cccc(/C=C2\SC(=S)N(C(C(=O)O)c3ccccc3)C2=O)c1OC (configuration not stated),-16%,-1%
C/C(=N/NS(=O)(=O)c1ccc(Br)cc1)c1cccc(NC(=O)C2CC2)c1,3%,3%
CSc1ccccc1NC(=O)Cn1c([N+](=O)[O-])cnc1C,i,3%
CC(C)C[C@H](NC(=O)[C@@H]1O[C@H]1C(=O)O)C(=O)NCCCCN=C(N)N,i,-11%
CCOC(=O)CSc1nc(N)nc(C)c1Cl,10%,-1%
Cc1nc2sc(C(c3cccc(F)c3)N3CCCC(C)C3)c(O)n2n1 (configuration not stated),-10%,-2%
CC(=O)Nc1cc(-c2cccc(C(=O)NCCN(C)C)c2)cn2c(-c3ccc(F)c(Cl)c3)cnc12,6%,-4%
O=C(c1ccc(Br)cc1)N(Cc1ccco1)c1ccccn1,-16%,-6%
O=C(NCCCN1CCOCC1)c1ccc2nc(Cc3cccc(Cl)c3)oc2c1,-14%,-17%
COc1cc(Cl)c(C)cc1NC(=O)CSc1ccccc1,-15%,-3%
CC(=O)N1CCN(Cc2nc3cc(Cl)ccc3c(=O)[nH]2)CC1,-10%,-3%
CCOC(=O)c1c(C)[nH]c(C(=O)COC(=O)CSC)c1C,-11%,4%
CCOC(=O)N1CCN(C(=O)C(NC(=O)c2ccc(CC)cc2)C(C)C)CC1 (configuration not stated),-5%,-16%
O=C(O)COc1ccc(/C=C/c2ccc3cccc([N+](=O)[O-])c3n2)cc1,-15%,-4%
Cc1ccc(SCC(=O)Nc2ccc(N3CCOCC3)cc2)c(C)c1,-3%,3%
Cn1cc([N+](=O)[O-])c(C(=O)N(Cc2ccccc2)Cc2ccccc2)n1,-18%,-13%
O=C(NCc1cccc(Cl)c1)C1CCN(C(=O)c2sccc2-n2cccc2)CC1,-5%,-1%
COc1ccc(/C(O)=C2\C(=O)C(=O)N(CCN(C)C)C2c2cccc(OC)c2OC)cc1 (configuration not stated),1%,2%
COc1ccc(OC)c(NC(=O)C23CCC(C)(C(=O)C2)C3(C)C)c1 (configuration not stated),x,1%
COc1ccccc1C1=NOC(C)(c2sc(-c3ccc(Cl)cc3)nc2C)C1 (configuration not stated),7%,6%
COc1cccc(C2N(Cc3ccccc3)C(=O)C2(F)F)c1OC (configuration not stated),-10%,-3%
COc1ccc(-n2c(-c3ccc(C)cc3)nc3ccccc3c2=O)cc1,i,-12%
CCn1c(SCC(=O)Nc2cccc(F)c2)nc2c(c1=O)SC(C)C2 (configuration not stated),i,0%
Cc1noc(C)c1S(=O)(=O)N(CC(=O)Nc1ccc(F)cc1F)c1ccc(C(C)C)cc1,-19%,-14%
CC(C)C1C(=O)N(Cc2cn(Cc3ccco3)nn2)CCS(=O)(=O)N1Cc1ccc(-c2cccc(N(C)C)c2)cc1 (configuration not stated),-25%,u
Cc1cc(SCC(=O)NCc2ccc(Cl)cc2)nc(=O)[nH]1,-4%,-6%
Cc1ccc(C2/C(=C(\O)c3cnn(-c4ccccc4)c3C)C(=O)C(=O)N2CCN(C)C)o1 (configuration not stated),-11%,-5%
COc1cc(/C=C/C(=O)OCC(=O)Nc2ccc3c(c2)OCCO3)ccc1OCC#N,-13%,-20%
COC(=O)c1ccc(C2/C(=C(\O)c3ccc4c(c3)OCCO4)C(=O)C(=O)N2CCCN2CCOCC2)cc1 (configuration not stated),i,-8%
O=C(Nc1nc2c(F)cccc2s1)C1CC1,27%,-9%
C=C(NS(=O)(=O)c1ccc(C)cc1)C(=O)OC,i,-15%
COc1cc(CN(C(=O)c2ccc(C)cc2)C2CCS(=O)(=O)C2)cc(OC)c1OC (configuration not stated),-13%,-13%
COc1cc(C(=O)Nc2ccc3ccccc3c2)cc(OC)c1OC,-3%,-20%
COc1cc(-c2cc(-c3ccc(F)cc3)nc(N)c2C#N)ccc1O,-29%,u
COC(=O)c1c(-c2ccsc2)oc2ccc(-c3cc(OC)c(OC)c(OC)c3)cc12,-3%,-17%
COc1ccc(C2CC(=O)Nc3c2c(=O)[nH]c2nc4ccccc4n32)cc1 (configuration not stated),16%,19%
Cc1ccc2[nH]c3c(=O)n(CCC4=CCCCC4)cnc3c2c1,x,5%
COc1ccc(CN(C2CCCCC2C)S(=O)(=O)c2ccc(S(=O)(=O)N(C)C)cc2)cc1OC (configuration not stated),-29%,-13%
CC1CCCN(C(=O)C2CC(=O)N(c3ccc(Cl)cc3)C2)C1 (configuration not stated),-6%,-5%
O=C(NCc1ccccc1)C(c1ccco1)N(C(=O)c1csnn1)C1CC1 (configuration not stated),i,-1%
Cc1ccc(C(=O)NCC(=O)NCc2ccc(Cl)cc2)s1,i,4%
CC1(C)C[C@H]2C3=CCC4[C@@]5(C)CC[C@H](O)[C@@](C)(CO)C5CC[C@@]4(C)[C@]3(C)C[C@@H](O)[C@@]2(CO)[C@@H](O)[C@@H]1O (some centres not stated),-8%,-13%
Cc1ccc(C)c(NC(=O)C(OC(=O)c2cnc(C)cn2)c2ccccc2)c1 (configuration not stated),0%,-13%
COc1ccc(C(=O)Nc2c3c(nn2-c2cccc(Cl)c2)CS(=O)C3)cc1 (configuration not stated),-10%,-10%
COc1ccc(CCNC(=O)c2cc(-c3ccco3)on2)cc1OC,i,-3%
Cc1ccc(CCNC(=O)c2ccc(CS(=O)(=O)c3ccc(Cl)cc3)o2)cc1,-12%,-10%
CCCCCc1ccc(-c2ccc(OCC)cc2)nc1,-1%,-4%
COc1cc(/C=C/C(=O)OCC(=O)NC(=O)NC2CCCC2)ccc1OCC#N,-6%,-16%
CCOC(=O)c1c(C)noc1CP(=O)(c1ccccc1)c1ccccc1,-8%,3%
Cc1c(C(=O)N2CCOCC2)sc2nc(-c3ccccc3)cn12,4%,-13%
CN(CC(=O)N1CCCCCC1)S(=O)(=O)c1ccc(F)cc1,u,2%
COC(=O)c1ccc([C@H](NC(=O)c2ccco2)[C@]2(C)C[C@H]2C2CCCCC2)cc1,-13%,-1%
CCOC(=O)C1CCN(C(=O)COC(=O)c2ccc(Br)o2)CC1,-2%,7%
COc1cccc(C(C)NC(=O)Nc2cccc(C(F)(F)F)c2)c1 (configuration not stated),-11%[1.46 µM],u
O=C(Nc1ccccc1)c1cccc(N2C(=O)C3C4C=CC(C4)C3C2=O)c1 (configuration not stated),-15%,-3%
CC(C)NS(=O)(=O)c1ccc(CCC(=O)Nc2cc(Cl)ccc2Oc2ccccc2)cc1,x,u
Cc1cccc(N=C2NC(=O)c3cc([N+](=O)[O-])ccc32)c1,i,-3%
Cc1cc(C(C#N)c2ccccc2F)n2ncnc2n1 (configuration not stated),-5%,-12%
CCN(CC)CCCN(Cc1cc2cc3c(cc2[nH]c1=O)OCO3)C(=S)NCCCOC,i,-16%
# The listing continues.
SMILES,Vaccinia mCherry,Vaccinia Venus
CCC(=O)N1CCc2cc(S(=O)(=O)NC(C(=O)NCCc3ccc(Cl)cc3)C(C)C)ccc21 (configuration not stated),-1%,9%
O=C(Nc1cccc([N+](=O)[O-])c1)C1CC(=O)N(Cc2ccccc2)C1 (configuration not stated),-12%,-5%
CC(C)(C)OC(=O)N1CCC(c2c(C(=O)NCCN3CCOCC3)cnn2-c2ccc(F)cc2F)CC1,-18%,-10%
CN(CC1CCOCC1)C(=O)c1ccc2nc(Cc3cccc(Cl)c3)oc2c1,i,-14%
Cc1ccnn1CCSCC(=O)O,-14%,-8%
CS(=O)(=O)Nc1ccc(C(=O)N2CCCC2)cc1,-6%,-5%
CC(C)c1cc(CN2CCN(CCC#N)CC2)cc(C(C)C)c1O,-23%,-18%
COc1cccc(N2CC(C(=O)Nc3nnc(SCC(=O)Nc4cc(C)on4)s3)CC2=O)c1 (configuration not stated),i,-2%
CN(CC(=O)Nc1ccc(Cl)c(C(F)(F)F)c1)C(=O)C1CCC1,-9%,-17%
Brc1cccc(CN2CCN(c3ncccn3)CC2)c1,i,-9%
CSc1ncccc1C(=O)N1CCN(S(=O)(=O)c2cc(C)ccc2C)CC1,i,-17%
CC(C)(C)c1ccc(CS(=O)(=O)CC(O)CN2CCCC2=O)cc1 (configuration not stated),-16%,-14%
CN(C)C(=O)c1cccc(-c2ccc3nncn3c2)c1,0%,-3%
CC(=O)Nc1ccc(N2C(=O)C3C4CC(=O)C(c5ccccc54)C3C2=O)cc1 (configuration not stated),x,-8%
Cc1cc(C(=O)CSc2nncn2C)c(C)n1-c1ccccc1,i,-21%
C/C(=N\NC(=O)c1ccccc1F)c1cccc(NC(=O)c2ccccc2)c1,-14%,-12%
OC(c1ccc(F)cc1)c1ncc(-c2ccc(Oc3ccccc3)cc2)[nH]1 (configuration not stated),-10%,-28%
Cc1ccc(N=Nc2c(O)ccc3n[nH]nc23)cc1,-28%,-21%
CCc1cc(C(=O)NCc2c(C)ncc3c2CCN(C(=O)C2=CCCC2)C3)no1,-8%,7%
Cc1cc(C)nc(-n2nc(C)c3c2NC(=O)CC3c2ccccc2OC(C)C)n1 (configuration not stated),-5%,-4%
Cc1cccc(-c2cc3nc4c(c(N5CCCC(O)C5)n3n2)CCC4)c1 (configuration not stated),-24%,-24%
COCCN(C(=O)CCCC(=O)Nc1ccccn1)C(C(=O)NC1CCCCC1)c1ccc(C)cc1 (configuration not stated),x,-15%
COc1ccccc1CNC(=O)COC(=O)C1CCN(S(=O)(=O)c2ccc(C)c(C)c2)CC1,-3%,-14%
O=C(O)C(NS(=O)(=O)c1cccc2nsnc12)c1ccccc1 (configuration not stated),i,-15%

# Quoted from the entries so far, 13 compounds:
SMILES,Vaccinia mCherry,Vaccinia Venus
CN(CC(=O)Nc1ccc(Cl)c(C(F)(F)F)c1)C(=O)C1CCC1,-9%,-17%
Brc1cccc(CN2CCN(c3ncccn3)CC2)c1,i,-9%
CSc1ncccc1C(=O)N1CCN(S(=O)(=O)c2cc(C)ccc2C)CC1,i,-17%
CC(C)(C)c1ccc(CS(=O)(=O)CC(O)CN2CCCC2=O)cc1 (configuration not stated),-16%,-14%
CN(C)C(=O)c1cccc(-c2ccc3nncn3c2)c1,0%,-3%
CC(=O)Nc1ccc(N2C(=O)C3C4CC(=O)C(c5ccccc54)C3C2=O)cc1 (configuration not stated),x,-8%
Cc1cc(C(=O)CSc2nncn2C)c(C)n1-c1ccccc1,i,-21%
C/C(=N\NC(=O)c1ccccc1F)c1cccc(NC(=O)c2ccccc2)c1,-14%,-12%
OC(c1ccc(F)cc1)c1ncc(-c2ccc(Oc3ccccc3)cc2)[nH]1 (configuration not stated),-10%,-28%
Cc1ccc(N=Nc2c(O)ccc3n[nH]nc23)cc1,-28%,-21%
CCc1cc(C(=O)NCc2c(C)ncc3c2CCN(C(=O)C2=CCCC2)C3)no1,-8%,7%
Cc1cc(C)nc(-n2nc(C)c3c2NC(=O)CC3c2ccccc2OC(C)C)n1 (configuration not stated),-5%,-4%
Cc1cccc(-c2cc3nc4c(c(N5CCCC(O)C5)n3n2)CCC4)c1 (configuration not stated),-24%,-24%

# Next part:
SMILES,Vaccinia mCherry,Vaccinia Venus
CC1Sc2ccc(S(=O)(=O)CCC(=O)N3CCN(c4ccccc4F)CC3)cc2NC1=O (configuration not stated),u,-17%
O=C(NCc1csc2ccc(Cl)cc12)Nc1cccc2ccccc12,i,-5%
CCN(C(=O)c1cc2c(=O)oc3ccccc3c2s1)c1ccc(C)c(C)c1,6%,8%
C/C(=N\Nc1nc(N2CCCCC2)nc(N2CCOCC2)n1)c1ccccc1O,i,-22%
O=C1CCc2ccccc2N1,i,-4%
Cc1ccccc1-c1cc2nc(NCCN3CCNC3=O)n(C)c(=O)c2s1,i,-28%
COc1ccc(C(=O)COC(=O)c2cccc(NC(=O)c3ccc(OC)c(OC)c3)c2)cc1,-22%,-17%
CS(=O)(=O)c1ccc(Cl)c(NC(=O)COc2ccc3c(c2)CCC3)c1,i,-8%
C/C(=N\NC(=O)CCCNc1ccc(C)cc1)c1ccccn1,11µM*,u
COc1ccc(C2(CNS(=O)(=O)c3ccc(C)cc3)CCOCC2)cc1,i,-4%
O=C(NCCSc1ccccc1)c1cccnc1,-11%,-10%
O=C(Nc1cccc(NC(=O)c2ccc(-c3ccc(Br)cc3)o2)c1)c1ccccc1,x,-26%
O=C(Cc1ccccc1)N(Cc1cccnc1)c1nc2ccc(Cl)cc2s1,-4%,-12%
CCOCCCN(CCC#N)C(=O)C1CCN(S(=O)(=O)c2ccc(-n3cnnn3)cc2)CC1,-4%,-2%
O=S(=O)(NC1CCCCC1Sc1ncccn1)c1ccccc1 (configuration not stated),-20%,-14%
O=C(c1cccc(F)c1)N1CCN(S(=O)(=O)c2ccccc2)CC1,i[1.46 µM],-15%
COc1cc(C(=S)N2CCOCC2)ccc1OC(=O)c1cc([N+](=O)[O-])cc([N+](=O)[O-])c1,-2%,-14%
CCOCCC(=O)Nc1ccc2c(c1)c(=O)n(C)n2-c1ccc2ccccc2c1,-5%,-25%
O=C(CNC(=S)N(CCCN1CCOCC1)Cc1cccs1)N1CCCC1,-14%,-12%
COc1ccc(-c2cc(C(F)(F)F)nc(SCC(=O)Nc3cc(C)on3)n2)cc1,8%,20%
CCc1ccc2c(Cl)c(C(=O)N/N=C/c3c[nH]c4ccccc34)sc2c1,x,u
O=C(O)C1Cc2ccccc2N2CCCC12 (configuration not stated),2%,-6%
O=c1sc2ccccc2c(N2CCCC2)c1[N+](=O)[O-],-20%,-11%

# Arranged by SMILES length (high to low): three of the compounds above
SMILES,Vaccinia mCherry,Vaccinia Venus
O=c1sc2ccccc2c(N2CCCC2)c1[N+](=O)[O-],-20%,-11%
O=S(=O)(NC1CCCCC1Sc1ncccn1)c1ccccc1 (configuration not stated),-20%,-14%
O=C(O)C1Cc2ccccc2N2CCCC12 (configuration not stated),2%,-6%
